Vif TR-FRET: inhibitors of Vif binding to APOBEC3G peptide, primary screen, biochemical, TR-FRET, GST-Vif 1-94, biotin-A3G peptide, dose response retest (AID 1117319). 260,000 compounds, 0.57% hits. one-dose inhibition, %; IC50 in µM for titrated hits. TR-FRET GST-Vif / biotin-A3G peptide binding; higher % means a stronger effect; test concentration not given here; strong numbers were not always called active. Virion infectivity factor (Human immunodeficiency virus type 1 group M subtype B (isolate …;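 active means above the screen mean plus three standard deviations and confirmed in dose response; inconclusive means results disagree or hit not tested in dose response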;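 further: Vif residues 1-94 fused to GST binding biotinylated APOBEC3G peptide 110-148; 0% = full assay without inhibitor and 100% = GST in place of GST-Vif; retest series ran down from 100 µM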
MLL AF4-AF9 inh: inhibitors of AF4 peptide binding to AF9, primary screen, biochemical, AlphaScreen, biotin-AF4 peptide, FLAG-AF9, single point; Protein AF-9 (Homo sapiens), P42568; inhibition, % at 10 µM; 350,000 compounds, 0.47% hits;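 active means every replicate reaching a set inhibition limit, whatever the replicate mean, cut at about 25% in these data; inconclusive means mean inhibition reaches that limit but some replicates miss it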;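 further: 0% = plate neutral control median and 100% = total signal loss; the record names both 10 and 1 µM as test concentration; the first replicate is given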
Target sequence (P42568 whole entry, looked up): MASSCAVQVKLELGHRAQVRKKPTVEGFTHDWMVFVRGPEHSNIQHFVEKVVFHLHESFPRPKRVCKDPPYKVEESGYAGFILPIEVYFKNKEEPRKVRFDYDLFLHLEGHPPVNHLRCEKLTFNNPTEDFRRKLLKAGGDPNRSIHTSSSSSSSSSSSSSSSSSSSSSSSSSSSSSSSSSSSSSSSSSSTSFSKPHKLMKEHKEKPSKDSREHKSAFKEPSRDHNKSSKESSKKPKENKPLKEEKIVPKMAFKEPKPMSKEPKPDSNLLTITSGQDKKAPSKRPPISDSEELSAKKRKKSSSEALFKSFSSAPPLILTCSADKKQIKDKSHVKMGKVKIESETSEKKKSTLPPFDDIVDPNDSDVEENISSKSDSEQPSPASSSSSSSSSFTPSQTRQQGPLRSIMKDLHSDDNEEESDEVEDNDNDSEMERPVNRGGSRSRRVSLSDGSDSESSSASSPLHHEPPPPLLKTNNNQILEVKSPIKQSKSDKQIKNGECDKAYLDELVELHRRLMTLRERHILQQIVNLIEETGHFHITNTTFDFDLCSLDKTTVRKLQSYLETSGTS
Ecoli rRNA inh: reduced GFP signal of wild-type E. coli, primary screen, bacterial rRNA inhibitor project, GFP/RFP fluorescence, OD600, single point; AID 720706, 2013; 350,000 compounds, 1.6% hits; E. coli WT GFP vs humanized-ribosome RFP mutants, 24 h; active compounds read low; DMSO median 0, no signal -100; GFP signal change (wild-type ribosome), % (test concentration not listed);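 active means significant combined selectivity score with lowered wild-type GFP, culture density cut under 30%, mutant RFP and density less affected; inactive means any of these conditions unmet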; further: one replicate is shown; some compounds called inactive have numbers as strong as hits
Ecoli rRNA inh OD600: further read-out of Ecoli rRNA inh, marked with its call; OD600 change, %; measured here: OD600 growth;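 optical density of the mix in the first replicate; 0 = DMSO median and -100 = no signal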
Ecoli rRNA inh RFP: further read-out of Ecoli rRNA inh, marked with its call; RFP signal change, %; measured here: RFP humanized mutant strains;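 first replicate; 0 = DMSO median and -100 = no signal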
An asterisk follows results filed as active; ? = inconclusive; & = joins results of further samples.

Second line of a record: Vif TR-FRET	MLL AF4-AF9 inh	Ecoli rRNA inh	Ecoli rRNA inh OD600	Ecoli rRNA inh RFP
> COc1ccc(C(=O)c2ccc(C)cc2)c(OC)c1OC
 : -7%	-1.5	-5	-23	1.7
> CC(=O)N1C(C)(C)CC(=NOS(=O)(=O)c2ccccc2)CC1(C)C
 : 8%	1.8	23	22	-0.7
> COC(=O)c1c(C)[nH]c(C(=O)COC(=O)Cn2cc(C(F)(F)F)ccc2=O)c1C
 : 2%	-1.2	1	4	0.3
> CN1OC[C@@H]2CN[C@H](c3cccc(-c4ccccc4)c3)C[C@@H]21
 : -2%	4.3	15	11	5.6
> CC(Sc1nc(N)cc(=O)[nH]1)C(=O)Nc1ccc(N2CCOCC2)cc1 (configuration not stated)
 : -3%	-4.5	10	22	1.6
> N#CCC(C(=O)c1cccnc1)c1ccccc1 (configuration not stated)
 : 5%	0.0	7	-3	7.8
> CS(=O)(=O)c1cccc(C(=O)Nc2cccc(S(=O)(=O)N3CCCC3)c2)c1
 : -4%	0.7	0	1	-1.0
> CCOC(=O)C1CC(=O)c2ccccc2C1c1ccccc1 (configuration not stated)
 : -3%	-3.1	-13	-27	-5.3
> CC1(C)CC(=O)C=C(c2ccccc2CO)C1=O
 : 0%	-1.2	6	9	0.6
> O=C1OCCN1C(=O)[C@H]1[C@H](c2ccccc2)C(c2ccccc2)=NN1c1ccccc1
 : 0%	-4.5	30	8	-0.9
> CC(=O)c1ccc(S(=O)(=O)N2CCN(c3nn(C)c(=O)n(C)c3=O)CC2)cc1
 : 0%	1.4	0	5	-0.1
> OC[C@@H]1[C@@H](c2ccc(Cl)cc2)C(c2ccc(F)cc2)=NN1c1ccccc1
 : 0%	-22	-15	-17	3.3
> S=C(NCCc1ccccc1)Nc1ncccn1
 : 4%	-6.0	6	10	0.5
> CCOCC(=O)NC1CCc2cc(OC(=O)COCC)c(OC)c(OC)c2-c2ccc(SC)c(=O)cc21 (configuration not stated)
 : 1%	6.1	9	9	0.4
> CCOC(=O)/C=C1/SCC(=O)N1CC(=O)Nc1ccccc1OC(F)F
 : 0%	2.3	15	20	4.9
> C[C@@H]1CN([C@@H](C)CO)C(=O)c2cc(-c3cccnc3)cnc2O[C@H]1CN(C)C(=O)c1cccc(F)c1
 : 0%	-2.0&-3.2&-2.5	7&1	14&11	-1.5&-3.1
> ClCCn1cnc2c(SCc3ccccc3)ncnc21
 : 1%	-1.1	-1	-40	4.8
> Cc1noc(C)c1NC(=O)N(C)C[C@@H]1Oc2cc(Br)ccc2S(=O)(=O)N([C@@H](C)CO)C[C@H]1C
 : 7%	-1.2&-1.7	5&0	5&-2	-1.2&-3.5
> CCOC(=O)C1=C(C(=O)OCC)c2ccc(OC)c(OC)c2C1
 : 7%	-0.3	-6	8	-3.5
> COc1ccc(-c2ccc(CN3C(C)C(=O)N(Cc4cn(CCC5OCCO5)nn4)CCS3(=O)=O)cc2)cc1 (configuration not stated)
 : 19%	-0.8	0	-5	1.3
> COc1ccc(Cl)cc1C(=O)NNC(=O)CCNC(=O)c1ccccc1
 : -2%	2.5	4	19	-1.7
> CN=c1scc(-c2ccc(F)cc2)n1/N=C/c1ccc(O)c(O)c1
 : ?	59*	-41*	-22*	-3.7*
> CC1C(=O)NN=C1c1ccc([N+](=O)[O-])cc1 (configuration not stated)
 : -1%	9.4	-4	11	-1.9
> CCOc1ccc(NC(=O)COC(=O)c2ccc3ncsc3c2)cc1OCC
 : -8%	6.1	0	6	-1.2
> CCOC(=O)/C(C#N)=C/Nc1cc(C(=O)OCC)cc2c(OC)c(OC)ccc12
 : -5%	0.2	3	11	1.4
> CCC(C)C(N=C1NS(=O)(=O)c2ccccc21)C(=O)N1CCC(C)CC1 (configuration not stated)
 : -8%	-25	0	-5	3.5
> Cc1cccc(/C=N/NC(=O)C[n+]2ccccc2)c1
 : 0%	15	8	12	1.3
> CNN/C(N=Cc1ccc([N+](=O)[O-])s1)=N\S(=O)(=O)c1cc(C)c(Cl)cc1SCc1ccccc1
 : 4%	-9.6	-6	-6	6.5
> COc1ccc(C2CC(c3ccccc3C(F)(F)F)=NN2c2ccc(S(N)(=O)=O)cc2)cc1 (configuration not stated)
 : -2%	-22	-3	-3	-3.8
> Cc1cccc(C(=O)OC(C)C(=O)N2CCN(Cc3ccccc3)CC2)c1 (configuration not stated)
 : 7%	-0.3	-4	-3	0.3
> COc1cc(Br)c(CC2c3cc(OC)c(OC)cc3CCN2C)cc1OC (configuration not stated)
 : -3%	-1.2	-4	-5	5.7
> Cc1ccc(S(=O)(=O)N2CCN(S(=O)(=O)c3ccccc3Br)C2=O)cc1
 : -1%	6.0	-16	-9	3.1
> O=C(COC(=O)COc1ccc(Cl)cc1)Nc1ncc(Br)s1
 : 11%	-0.8	2	11	-0.8
> COc1ccc(CC(=O)Nc2nnc(CC(C)C)s2)cc1S(=O)(=O)N1CCOCC1
 : 5%	-1.4	10	14	1.4
> CCc1cc2c(cc3c(=O)n(CC(=O)NCCCN4CC(C)CC(C)C4)ncn32)s1 (configuration not stated)
 : -4%	1.6	6	5	-5.7
> CN(CC(=O)O)Cc1oc(CO)cc(=O)c1O
 : -4%	-2.1	3	9	12
> CCCn1c(=S)[nH]c2cc(C(=O)NCc3ccccc3OC)ccc2c1=O
 : -10%	1.1	-6	-14	-2.6
> COC(=O)c1c(NC(=O)c2ccc(C(=O)c3ccccc3)cc2)sc2c1CC(C)(C)NC2(C)C
 : -3%	4.7	3	11	6.3
> Nc1nc(SCc2ccccc2)c2ncn(C3CCCO3)c2n1 (configuration not stated)
 : 1%	1.6	-9	-20	-3.2
> COc1ccc(NC(=S)N(CCc2ccncc2)C(C)C)cc1Cl
 : -2%	0.7	8	-17	2.2

Gathered by group, the compounds so far with a cyano group
Second line of a record: Vif TR-FRET	MLL AF4-AF9 inh	Ecoli rRNA inh	Ecoli rRNA inh OD600	Ecoli rRNA inh RFP
> N#CCC(C(=O)c1cccnc1)c1ccccc1 (configuration not stated)
 : 5%	0.0	7	-3	7.8
> CCOC(=O)/C(C#N)=C/Nc1cc(C(=O)OCC)cc2c(OC)c(OC)ccc12
 : -5%	0.2	3	11	1.4

New compounds follow.
Second line of a record: Vif TR-FRET	MLL AF4-AF9 inh	Ecoli rRNA inh	Ecoli rRNA inh OD600	Ecoli rRNA inh RFP
> O=C(CC1CC1)Nc1ccc2c(c1)[C@H]1C[C@H](CC(=O)N3CCc4ccccc4C3)O[C@@H](CO)[C@H]1O2
 : -1%	1.2&0.1	-5&0	9&4	4.2&-0.9
> O=C(C[C@H]1C(=O)N(Cc2cccnc2)C[C@@H]1Cc1ccccc1)Nc1ccccc1
 : 10%	14	-3	3	-3.5
> CCC(c1ccccc1)c1noc(CCN(CC)CC)n1 (configuration not stated)
 : 4%	-8.2	5	2	4.0
> COc1ccc(NC(=O)N(C)C[C@@H]2OCc3cn(nn3)CCCC(=O)N([C@H](C)CO)C[C@H]2C)cc1
 : -7%	0.0&0.8	21&0	6&1	4.4&-0.1
> CC(=O)Nc1ccc(NC(=O)CSc2nnc(NC(=O)c3ccccc3F)s2)cc1
 : -8%	0.0	-4	-19	-5.8
> CC1=C(C(=O)N(C(C)C)C(C)C)CC(CC(=O)NC2CCCC2)C(=O)N1Cc1ccccc1 (configuration not stated)
 : 4%	-1.2	4	11	1.7
> CSc1ccccc1C(=O)N1CCc2ccc(NC(=O)c3ccccn3)cc2C1
 : -1%	1.6	-21	-45	6.5
> COc1ccc2oc(C(=O)Nc3cccc(S(=O)(=O)N4CCOCC4)c3)c(C)c2c1
 : -13%	-2.1	5	8	-2.0
> CC1CCCN(C(=O)C2CCN(S(=O)(=O)c3cccs3)CC2)C1 (configuration not stated)
 : 6%	?	9	20	-1.4
> O=C(Nc1ccnn1C1CCN(Cc2ccc(CO)o2)CC1)c1cccc(F)c1
 : 12%	2.7	7	11	-2.0
> Cc1cccc(C#CC2=CC(=O)CC(C)(C)C2)c1
 : -5%	2.2	-6	-1	3.3
> N#Cc1cccc(Oc2ccc(S(=O)(=O)N3CCCC3)cn2)c1
 : 50%	-0.9	2	10	-0.4
> CC1CCCC(NC(=O)COC(=O)c2ccccc2C(=O)N(C)C2CCCCC2)C1C (configuration not stated)
 : 2%	-2.9	-28	-68	4.6
> CN(C)c1ccc(Sc2ccc3nc(N)nc(N)c3c2)cc1
 : -6%	13	-59	-80	-23
> O=C1Cc2cc(O)ccc2O1
 : -2%	2.1	21	21	14
> O=C(Nc1ccc(N2CCOCC2)cc1)C1=NN(c2ccccc2)C(=O)CC1
 : -2%	1.8	-2	10	-2.3
> O=C1C(O)CCN1Cc1ccccc1 (configuration not stated)
 : -2%	6.1	8	10	2.9
> Oc1ccc(C[C@H]2CNC(=S)N2CC2CCCN2C[C@H](Cc2ccc(O)cc2)N2C[C@H](Cc3ccc(O)cc3)N(CC3CCCCC3)C2=S)cc1 (some centres not stated)
 : 6%	1.4	0	8	13
> O=C1/C(=C\c2ccccc2)CCC/C1=C/c1ccccc1
 : -2%	11	-34	-62	-4.4
> COc1ccc(S(=O)(=O)N2CCOCC2)cc1NC(=O)CCCOc1ccc(C(C)=O)cc1
 : 0%	-5.6	10	4	2.7

Taken from above.
O=C(CC1CC1)Nc1ccc2c(c1)[C@H]1C[C@H](CC(=O)N3CCc4ccccc4C3)O[C@@H](CO)[C@H]1O2 @ Ecoli rRNA inh RFP: 4.2&-0.9
O=C1Cc2cc(O)ccc2O1 @ MLL AF4-AF9 inh: 2.1
O=C(COC(=O)COc1ccc(Cl)cc1)Nc1ncc(Br)s1 @ Ecoli rRNA inh: 2
CC1C(=O)NN=C1c1ccc([N+](=O)[O-])cc1 (configuration not stated) @ Ecoli rRNA inh OD600: 11

The list continues:
Second line of a record: Vif TR-FRET	MLL AF4-AF9 inh	Ecoli rRNA inh	Ecoli rRNA inh OD600	Ecoli rRNA inh RFP
> CN(C)C(CNC(=O)c1cccc(S(=O)(=O)NCc2ccccc2)c1)c1ccccc1 (configuration not stated)
 : 4%	14	5	-3	1.1
> Cc1n[nH]c(=O)n(N=Cc2c[nH]c3ccccc23)c1=O
 : 5%	-10	12	9	-1.2
> O=C(c1ccc2nc[nH]c2c1)N1CCN(S(=O)(=O)c2cccc(Cl)c2)CC1
 : 6%	-0.4	-3	-2	0.4
> CN(C(=O)c1cccc(NC(=O)Cc2ccc(NC(=O)C3CCN(S(=O)(=O)c4cccc([N+](=O)[O-])c4)CC3)cc2)c1)C1CCCC1
 : 15%	-0.7	6	6	0.0
> Oc1cccc(-c2nnc(-c3cccc(O)c3)nn2)c1
 : 1%	7.3	-7	11	1.0
> COC(=O)[C@H](Cc1ccccc1)NCCCn1cnc(C(=O)Nc2ccc(C)c(C)c2)n1
 : -9%	0.3	-35*	-16*	4.5*
> Cc1ccc(Cc2c(-c3ccc(C)cc3)nc3ccc(Br)cn23)cc1
 : -11%	2.3	-4	-11	-3.2
> CCOC(=O)C1=C(C)N(C[C@@H]2CC[C@@H](Cc3ccc(-c4ccccc4)cc3)O2)C(=O)NC1c1ccc(C(F)(F)F)cc1 (some centres not stated)
 : -2%	-5.2	1	1	-3.3
> COc1cccc(N2CCN(C(=O)c3ccc4ccccc4c3)CC2)c1
 : 4%	-4.9	-1	0	-0.2
> O=C(c1ccccc1)c1ccc[nH]1
 : 5%	2.8	8	3	2.2
> CCCCCCC(NC(=O)c1ccc(C)cc1)C(=O)O (configuration not stated)
 : 6%	-0.1	2	4	-3.2
> O=[N+]([O-])c1ccc(-c2csc(COc3ccccc3)n2)cc1
 : 1%	-0.4	6	11	1.5
> Cc1ccccc1S(=O)(=O)N(C)C[C@@H]1OCc2cn(nn2)CCCC(=O)N([C@H](C)CO)C[C@H]1C
 : 1%	-1.2&1.2&-4.3	5&5	9&6	1.5&1.3
> CC(=O)c1ccc2cc3c(cc2c1)OCO3
 : -7%	-3.6	-3	-15	-6.7
> COc1cc2c(cc1NC(=O)c1ccccc1-c1ccccc1C(=O)O)-c1ccccc1C2
 : 10%	-0.7	-37	-46	3.5
> O=C(O)C(=Cc1ccccc1[N+](=O)[O-])c1ccccc1
 : -2%	0.3	4	2	2.7
> CC1CCCC(NC(=O)CN2CCN(S(=O)(=O)c3ccc(Br)s3)CC2)C1C (configuration not stated)
 : 3%	1.4	-26	-38	-0.9
> CSc1nc2ncncc2[nH]1
 : 0%	-0.8	13	9	1.7
> CC(C)NC(=O)N(C)C[C@@H]1Oc2cc(C#Cc3ccccn3)ccc2S(=O)(=O)N([C@@H](C)CO)C[C@H]1C
 : 0%	2.9&-1.4&-2.1	-4&1	-12&5	-1.3&-5.3
> CC1=C(C(=O)N2CCOCC2)CC(CC(=O)NCC2CCCCC2)C(=O)N1CCCN1CCCC1=O (configuration not stated)
 : -4%	0.4	20	18	3.5
> CC(C)OCCCNc1nc(Cl)nc2c1cnn2C
 : -7%	-28	8	3	3.6
> Nc1nc(SCc2cccnc2)c2ncn(C3OC(CO)C(O)C3O)c2n1 (configuration not stated)
 : -1%	-6.8	1	3	1.2

These rows are one share of the data; rates above refer to the full screens.
